Screening data deposited in PubChem by Fisher Drug Discovery Resource Center.
NPYLR7 agonist: agonists of mosquito NPYLR7 receptor, primary screen, cell-based, Aedes aegypti, calcium fluorescence, mosquito biting behavior | Aedes aegypti neuropeptide Y-like receptor 7 (NPYLR7) | HEK293T NPYLR7/Galpha15, GCaMP6s calcium fluorescence | activation, % at 10 µM | 0.15% of 270,000 active; in the data active means activation above about 40%;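 further: 0% = vehicle and 100% = reference agonist at the receptor; some compounds past the cut are filed as inactive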
NPYLR7 agonist max-min: also measured in NPYLR7 agonist; calls as there; activation, %; measured here: Max-Min RFU normalised activation; some inactives read as strong as hits;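 span of the calcium signal over five minutes; 0% = vehicle and 100% = native peptide agonist; compound fluorescence can raise it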
* hit, by the source's call; & = joins results of further samples. An excerpt. The share of hits here may be higher or lower than overall.

smiles	NPYLR7 agonist	NPYLR7 agonist max-min
O=C(Oc1c(Br)cc(Br)c2cccnc12)N1CCOCC1	3	1
O=C(NNC(=O)c1ccccc1O)c1ccc2c(c1)OCO2	12	1
O=C(c1ccc(C(F)(F)F)c(F)c1)N1CCc2c([nH]c3ccccc23)C1c1ccc(C(F)(F)F)cc1 (centres undefined)	-7	-14
CCCOc1ccccc1NS(=O)(=O)c1ccccc1	2	6
CCN(CC)Cc1cc2ccccc2c2c1COC2	1	0
O=C(C=Cc1ccco1)NC1CCCC1	-2	-3
O=C(O)Cc1csc(SCc2cccnc2)n1	1	1
Cc1nnc(SCCn2c(N3CCCC(C)C3)nc3c2c(=O)n(C)c(=O)n3C)s1 (centres undefined)	19	8
CC(C)CCOC(=O)C1(C(=O)OCCC(C)C)CC2(COC(c3ccccc3)OC2)C1	-1	-3
COc1ccc(CCn2c(-c3ccc(OC)c(F)c3)nc3ccc(Cl)cc3c2=O)cc1	7	5
Cc1nc(-c2ccc(Cl)cc2)nc(N2CCN(C(=O)c3ccc(Cl)c(Cl)c3)CC2)c1C	11	22
CCOc1ccc(C(=O)c2nc3c(n2O)CCCC3)cc1OCC	11	1
Cc1ccsc1CN(C)C(=O)c1ccc(Cn2ccnc2)o1	-8	-9
CC(C)N1CCC(=NNc2ccnc3cc(Cl)ccc23)CC1	5	3
Cn1nnc2c(NC3CCCCCC3)ncnc21	12	6
CN1C[C@@H]2CC[C@H](CC1=O)N2Cc1ccc(Sc2nncn2C)o1	5	2
CCCCn1c(=S)[nH]c2cc(C(=O)OC)ccc2c1=O	-2	-7
O=C1CCN(C(=O)c2ccc3oc(Cc4ccc(Cl)cc4)nc3c2)CCN1	0	-5
CCS(=O)(=O)c1cccc(C(=O)N(Cc2ccccn2)c2nc3c(Cl)cccc3s2)c1	-2	-5
Cc1ccc(C(=O)CSc2nccn(-c3ccc(F)cc3)c2=O)cc1	-1	-10
Fc1ccccc1-c1cnnc(N2CC[C@@H]3CCCC[C@H]3C2)n1	7	4
O=C1NC2(CCN(C(=O)Nc3ccc(Cl)cc3)CC2)Nc2cccc(Cl)c21	5	19
CCc1nc(Cl)c(N)c(Oc2cc(C)nn2-c2ccc(F)c(F)c2)n1	10	0
Cc1ccc(C(=O)NC(C(=O)N(C)C)C(C)C)c(C)c1 (centres undefined)	-2	-2
CC(=O)c1cccc(N(CN2C(=O)c3ccccc3C2=O)C(=O)c2ccccc2)c1	-3	-9
O=C(NCCC(=O)N1CCOc2ccccc2C1)C1CC2CCC1C2 (centres undefined)	5	3
Cc1nn(C)c(C)c1CNCc1ccc(S(=O)(=O)N2CCCCC2)cc1	-1	-4
COc1cccc2cc(-c3csc(-c4ccccc4)n3)c(=O)oc12	23	14
CCC(=O)C1=C(c2ccc(C)c(C)c2)N(C(=O)CC)n2c(CC)nnc2S1	6	0
CCCn1ccc2c(nnc3c(-c4ccccc4)c(COC)nn32)c1=O	11	10
Cc1ccccc1-n1c(SCc2ccc(Cl)c(Cl)c2)nnc1-c1ccccc1F	19	18
COCCN(Cc1ccc(OC)cc1)c1c(C)nc2ccc(C(=O)N3CCN(c4ccccc4)CC3)cn12	-6	-11
CCCS(=O)(=O)N1CCCC1C(=O)N(C)Cc1cnn(-c2ccccc2)c1 (centres undefined)	-3	-6
CCn1c(N2Cc3cnn(CCO)c3C2)nc2cc(C(=O)OC)cnc21	-3	-7
CCOC(=O)c1cc(-c2ccc(N3CCN(C(=O)c4cccs4)CC3)cc2)n(-c2ccccn2)n1	-3	-6
CC(c1nc2ccccc2c(=O)[nH]1)N(C)CCOc1ccc(F)cc1 (centres undefined)	16	3
CCOc1ccccc1CNC(=O)c1ccc(-c2cc(-c3ccc(N4CCCCC4)cc3)n[nH]2)cc1	3	17
CC(=O)c1ccc(N2CCN(Cc3ccc(C)cc3)CC2)nc1	-4	-3
Cc1cc(CN2CCCN(C(=O)Nc3cccc(Cl)c3F)CC2)no1	2	2
Oc1ccc(-c2nc(-c3ccc(O)c(O)c3)cs2)cc1	13	4
Cc1ccccc1NC1SC(=O)N(c2ccccc2C)C1=O (centres undefined)	1	4
C[n+]1cc2c3c(ccc2c2ccc4cc5c(cc4c21)OCO5)OCO3	-4&-12&42&10&39	-3&-7&15&9&-26
CCOC(=O)c1[nH]c(C)c(C(=O)C(C)N(CCOC)C(=O)Nc2c(C)cccc2C)c1C (centres undefined)	-6	7
CC(CCS(C)(=O)=O)NC(=O)NCCc1cccc2ccccc12 (centres undefined)	0	-3
CC(C)N(Cc1cccc(OS(=O)(=O)c2ccc(F)cc2)c1)C(=O)c1ccccc1Cl	-10	-1
O=C(NCCc1ccccc1)N1CCN(S(=O)(=O)c2ccc(F)cc2)CC1	11	7
c1cc(-c2nnc3n2CCCCC3)oc1CN1CCCCC1	12	10
Cc1nc(C(C)NC(=O)c2ccc(NC(=O)C3CCC3)cc2)c(C)s1 (centres undefined)	7	-5
Cn1nc(-c2ccccn2)c2c1NC(=O)CC2c1c(Cl)nc2sccn12 (centres undefined)	30	15
Cc1ccc(C2OCCCC2NC(=O)NCc2cccnc2)cc1 (centres undefined)	2	-2
Cc1c(Br)cc(C(=O)NC(C)C)c(C)c1C	-4	-6
COc1ccc2c(c1)CCC1=C2CCC2(C)C1=CCC2OC(C)=O (centres undefined)	12	11
CCCn1c(=O)c(C)cn2nc(N)nc12	-15	-22
Cc1cccc(Nc2ncnc3c2CN(C(=O)c2cccnc2N2CCCC2c2ccncc2)CC3)c1 (centres undefined)	-2	-4
CCc1c(C)nc(-c2cccc(C(F)(F)F)c2)nc1N1CCN(C(=O)Nc2cccc(OC)c2)CC1	-4	0
COc1cccc(CN2CCc3cc(OC)c(OC)cc3C2CNC(=O)c2ccc(F)cc2)c1 (centres undefined)	0	0
COc1ccc(-n2nnnc2CNC(=O)NCCc2ccccc2)cc1	16	9
O=C1CCN(C(=O)c2ccc(-c3cccc(Cl)c3Cl)o2)CC1	2	1
O=C(N[C@@]1(c2ccccc2)CCCC[C@H]1O)c1ccc[nH]c1=O	8	9
COc1cccc(CSc2nnc(-c3ccccc3OC)n2C)c1	11	4

New compounds follow.
smiles	NPYLR7 agonist	NPYLR7 agonist max-min
CCOC(=O)CCCSc1nnc(-c2ccco2)n1-c1ccccc1C	-8	-2
O=[N+]([O-])c1cc(C2SCCS2)ccc1Cl	2	9
Cc1cccc(C)c1OCCN1CCN(CC(=O)NC2CCS(=O)(=O)C2)CC1 (centres undefined)	5	3
O=C(c1c(F)cccc1I)N1CC[C@H](O)C1	1	1
COC(=O)C(Cc1ccccc1)NC(=O)c1cccnc1NC(C)C (centres undefined)	20	18
O=c1c(Cl)c(Cl)cnn1-c1ccccc1	-8	-10
O=C(NCc1n[nH]c2c1CCC2)C1CCC(=O)N(CCc2ccc(Cl)cc2)C1 (centres undefined)	4	-4
COc1cccc(NC(=O)C2(C)CCN2C(=O)C2(c3ccccc3)CC2)c1 (centres undefined)	4	1
O=C(CCN1Cc2ccccc2C1=O)NC1CCCN(c2nc3ccccc3s2)C1 (centres undefined)	5	4
Cc1ccc(NC(N)=Nc2nc(CSc3ccccn3)cc(=O)[nH]2)c(C)c1	3	1
N#CCN(Cc1ccccc1)C(=O)C1CCCN(C(=O)c2ccc(-n3cccc3)nc2)C1 (centres undefined)	11	4
Cc1cc2nc(NC(=O)C3(C)CCN3C(=O)C(C)C)[nH]c2cc1C (centres undefined)	3	1
Cc1cc(C)n2nc(SCC(=O)NNC(=O)c3ccccc3)nc2n1	7	15
Cc1cc(C)c(C(=O)N2CCCC(C(=O)c3ccc(C(F)(F)F)cc3)C2)[nH]1 (centres undefined)	5	6
CC1CC1C(=O)NS(=O)(=O)CCc1ccccc1 (centres undefined)	13	4
O=C(Nc1nccnc1C(=O)NC1CCNCC1)c1cc(F)cc(F)c1	23	8
Cc1ccc(N=C2NC(=O)/C(=C/c3ccccc3OCC#N)S2)cc1Cl	1	-2
CCC(C)C(C)NC(=O)c1ccc(F)c(NS(C)(=O)=O)c1 (centres undefined)	7	5
COc1ccc(C2NC(=O)NC(C)=C2C(=O)OCc2ccccc2)c(OC)c1 (centres undefined)	-6	-13
CC(C)(CNC(=O)C1Cc2cc(F)ccc2O1)C1CCCCO1 (centres undefined)	5	0

Rewritten as labelled records: entries from further up
canonical_smiles: O=C(CCN1Cc2ccccc2C1=O)NC1CCCN(c2nc3ccccc3s2)C1 (centres undefined)
- NPYLR7 agonist: 5
- NPYLR7 agonist max-min: 4
canonical_smiles: Cc1ccc(NC(N)=Nc2nc(CSc3ccccn3)cc(=O)[nH]2)c(C)c1
- NPYLR7 agonist: 3
- NPYLR7 agonist max-min: 1

Following part:
smiles	NPYLR7 agonist	NPYLR7 agonist max-min
Cc1cc2nc(-c3cccs3)cc(-c3nnc(SCc4cccc(I)c4)n3C(C)C)c2cc1C	1	10
CCc1nc2n(n1)C(=O)C(C(c1ccc(OC)cc1)N1CCC(O)CC1)S2 (centres undefined)	-1	-8
CN(CCc1ccccc1)C(=O)c1coc(COc2ccc(F)cc2)n1	0	-1
COc1ccc(NC2CCCN(CC(=O)Nc3ccc(C)cn3)C2)cc1 (centres undefined)	4	3
O=S(=O)(Nc1cccc(N2CCC(NCC3OCCc4ccccc43)CC2)c1)c1ccc(F)cc1 (centres undefined)	22	12
CCCCNC(=O)C1(C)CCN1C(=O)c1ccc(C)c(F)c1 (centres undefined)	5	2
Cc1nc(C(F)(F)F)nc(NCC2(O)CCCNCC2)c1C (centres undefined)	10	9
CN(Cc1ccccc1)Cc1cc(C(=O)N2CCN(c3ccccn3)CC2)no1	-1	-5
Cc1ccc(NC2C=CS(=O)(=O)C2)cc1C (centres undefined)	110*	115*
CC(=O)NCC1CCN(Cc2ccc(Cl)c(Cl)c2)C1 (centres undefined)	1	1
COc1ccc(C2c3[nH]c4ccccc4c3CCN2C(=O)CC2=CCCCC2)c(F)c1 (centres undefined)	-11	-16
Cc1cc(C)c2c(n1)nn1c(NCCCN3CCOCC3)cc(C)nc21	0	8
O=C(NCc1cc(-c2ccc(F)cc2F)on1)C1CCCC1	1	-2
NC(=O)C1(N2CCCCC2)CCN(S(=O)(=O)NCc2ccccc2)CC1	6	5
CCCn1nnnc1CN(C)S(=O)(=O)c1ccc(OC)cc1	-1	-2
Cn1c(=O)[nH]c(=O)c2cc(S(=O)(=O)N3CCCc4cc(F)ccc43)cnc21	-1	-9
Cn1c(=O)c([N+](=O)[O-])c(N2CCN(C3c4ccccc4-c4ccccc43)CC2)c2ccccc21	9	7
Cc1cc2oc(=O)cc(CN3CC(C)OC(C)C3)c2cc1C(C)C (centres undefined)	-2	-2
Cc1ccc2oc(=O)n(C3CCN(C(=O)C(C)C)CC3)c2c1	2	0
N#CC1C(=N)Oc2n[nH]c(-c3ccccc3)c2C1C1CC=CCC1 (centres undefined)	7	9
Cc1nnc(-c2cc3ccccc3n2CC(=O)NC2CCCCC2)o1	-3	1
COc1ccc(OC)c(NCCn2c(C)cn3c4c(=O)n(C)c(=O)n(C)c4nc23)c1	-17	-16
CCN1CCN(c2cc(C)nc3c(-c4ccccc4)c(C(F)(F)F)nn23)CC1	3	4
c1ccc(C2=Nc3nnnn3C(c3ccco3)C2)cc1 (centres undefined)	6	0
N#Cc1cnn2c(C(F)(F)F)c3c(nc12)CCCC3	3	2
CC(C)NC(=O)c1cnn2c1NC(c1ccco1)CC2C(F)(F)F (centres undefined)	28	5
Cc1ccc2nc(NCC(c3cccnc3)N3CCOCC3)cc(C)c2c1 (centres undefined)	3	2
c1ccc(C2=NNC(c3nc4ccccc4[nH]3)C2)cc1 (centres undefined)	-2	-9
CC1CN(S(=O)(=O)c2ccc(C(=O)Nc3nc4cc5c(cc4s3)OCO5)cc2)CC(C)O1 (centres undefined)	2	0
CCc1nc2ccc(C(=O)NCCCn3ccnc3)cn2c1N(C)Cc1ccc(OC)cc1	-12	-17
COc1ccc2[nH]cc(C3CCN(C(=O)c4cccnc4Sc4ccc(Cl)cc4)CC3)c2c1	14	5
O=C1Nc2ccccc2C1=NC1CCS(=O)(=O)C1 (centres undefined)	-3	-6
CCC(O)(CC)c1ccc(CN(Cc2cc(OC)cc(OC)c2)CC(C)C)o1	14	10
Fc1cc(CN2CCN(Cc3ccccc3)CC2)c2ncccc2c1	3	3
CC1(C(=O)NCc2cccs2)CCN1S(=O)(=O)c1ccccc1 (centres undefined)	3	1
CN(C)c1cnn(CC(=O)NCC2(N(C)C)CCSC2)c(=O)c1 (centres undefined)	3	0
COCCN(C(=O)C(C)c1cc(C)oc1C)C1CCS(=O)(=O)C1 (centres undefined)	9	6

An excerpt from above in order of SMILES length, lowest first:
smiles	NPYLR7 agonist	NPYLR7 agonist max-min
O=C(C=Cc1ccco1)NC1CCCC1	-2	-3
Cc1ccc2oc(=O)n(C3CCN(C(=O)C(C)C)CC3)c2c1	2	0
NC(=O)C1(N2CCCCC2)CCN(S(=O)(=O)NCc2ccccc2)CC1	6	5
CN1C[C@@H]2CC[C@H](CC1=O)N2Cc1ccc(Sc2nncn2C)o1	5	2
CCS(=O)(=O)c1cccc(C(=O)N(Cc2ccccn2)c2nc3c(Cl)cccc3s2)c1	-2	-5
O=S(=O)(Nc1cccc(N2CCC(NCC3OCCc4ccccc43)CC2)c1)c1ccc(F)cc1 (centres undefined)	22	12
